# BJeLR viability = MLPCN primary cell-based screen for lethality selective to Ras in HRASV12 cells; BJeLR (HRASV12) viability, CellTiter-Glo ATP luminescence, 48 h; reference of the scale not given here; inhibition, % (concentration not given with the values); actives 0.17% (n = 300,000); AID 1554, 2009;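 active = replicate mean above 50%; inconclusive = above 50% but judged a plate artefact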;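 also: 50 nL library stock added to about 25 µL; numbers are from one replicate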
# Autofluor counter = counter-screen for toxin protease inhibitors: compound fluorescence; compound autofluorescence counterscreen, microsphere flow cytometry; active compounds read high; fluorescence intensity (concentration not given with the values); actives 3.1% (n = 360,000);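 active = at least 3 SD above the mean of all compounds, about 16000 in these data; inconclusive = too few beads counted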;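 also: 100 nL of 1 mM stock went into each well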
# Mtb hypoxia inh = PubChem AID 1159583 | actives 0.1% (n = 300,000) | fluorescence inhibition, % (test concentration not listed) | M. tuberculosis hypoxia-regulated fluorescent reporter, fluorescence;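 active = 35 to 45% if threefold the growth effect, above 45% if 1.5-fold the growth effect; inactive = the rest, general growth blockers included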;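 also: wells of about 50 µL received 100 nL stock; 0% = vehicle wells and 100% = reference inhibitor wells; whole bacteria with a GFP reporter of the hypoxia response; strong numbers were not always called active; many hits fall short of the cut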
# Sa RN4220 lethal = growth inhibition of S. aureus RN4220, primary screen, OD600; AID 1259311, 2017; actives 0.33% (n = 330,000); 16 h; inhibition, % (test concentration not listed);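 active = z-score of -3 or lower and OD600 up to 0.18 on both plates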;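 also: plate controls were untreated cells for no effect and reference antibiotic for full effect; stock transfer was 100 nL into about 80 µL; one replicate is shown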
# ugtP null kill = growth inhibition of ugtP-null S. aureus, primary screen, RN4220 ugtP deletion, OD600 | growth inhibition, % (concentration not given with the values) | 16 h; some inactives read as strong as hits | actives 0.54% (n = 330,000);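 active = z-score under -3 and OD600 up to 0.15 on both plates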;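 also: plate controls were untreated wells for no effect and antibiotic for full effect; wells of about 80 µL received 100 nL stock; the first replicate is given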
# PrP UTR inh = inhibition of PrP 5' UTR reporter expression; cell-based PrP 5' UTR mRNA reporter, plate reader; inhibition, % (no concentration beside the values); actives 0.35% (n = 340,000); AID 488862, 2010;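 active = every replicate at 50% or more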;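 also: 0 = median of the neutral control wells; tested in H4 reporter cells; numbers are from one replicate; inactives centre near -14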
# Mtb hypoxia inh growth = also measured in Mtb hypoxia inh; calls as there; growth inhibition, %; measured here: M. tuberculosis growth (absorbance);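 0% = vehicle and 100% = reference antibiotic; read after six days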
# Numbers without * were called inactive; u = inconclusive; x = not tested or not shown. Rows are unselected; overall some 4% were active at least once.
# Below each compound: BJeLR viability | Autofluor counter | Mtb hypoxia inh | Mtb hypoxia inh growth | Sa RN4220 lethal | ugtP null kill | PrP UTR inh
[1] COc1cccc(OC)c1C(=O)Nc1cccc(-n2cnnn2)c1
→ 3.4 | 5340 | 1.9 | 7.6 | -2.7 | 6.1 | -6.8
[2] Cc1ccc(S(=O)(=O)N(C)CC(=O)O/N=C(\N)c2cccc(Br)c2)cc1
→ -4.6 | 4335 | -0.9 | -1.5 | 10.7 | -11.3 | -3.5
[3] O=[N+]([O-])c1ccc2c(c1)C(c1ccccc1)=NCCN2
→ 13.5 | 3581 | 6.0 | -0.3 | 2.1 | 1.2 | -9.1
[4] COc1ccc(/C=N/N2CCN(C)CC2)cc1OC
→ 0.3 | 2264 | x | x | x | x | -3.7
[5] Cc1ccc(O)c(NC(=O)c2cc(-c3cccs3)on2)c1
→ 0.0 | 5535 | 14.6 | 1.1 | 3.0 | -3.7 | -56.7
[6] O=C(CNc1cccc2ccccc12)NN=Cc1ccc(C(=O)O)cc1
→ x | x | 0.3 | 0.0 | 6.7 | -1.7 | x
[7] O=C(/C=C/c1ccco1)Nc1ccccc1C(=O)Nc1cccc(C(=O)O)c1
→ -3.3 | 4272 | -1.1 | -4.0 | 6.2 | 2.6 | -7.4
[8] O=C(Nc1cccc(-c2csc(Nc3ccc(Cl)cc3)n2)c1)c1cc([N+](=O)[O-])cc(C(F)(F)F)c1
→ -3.6 | 3290 | -1.5 | 1.3 | 3.9 | -48.6 | -27.4
[9] C=C(C)COc1ccc(-c2ncncc2-c2ccc(Br)cc2)c(O)c1
→ -16.1 | 3708 | -2.2 | -6.3 | -8.3 | -3.0 | 5.3
[10] Cc1c(C(=O)NCCSCc2c(F)cccc2Cl)cnn1-c1ccc(F)cc1
→ -0.4 | 4240 | -0.1 | 14.5 | -8.3 | -3.2 | -6.4
[11] CN=C(Nc1ccc(C(=O)OC)s1)c1ccc(Cl)cc1
→ x | 4033 | -5.9 | 3.3 | 1.6 | -3.0 | -17.3
[12] CCCC(=O)C1=C(O)C(C(=O)OC)C(C)(C)CC1=NC(C)(C)C (stereo unspecified)
→ 2.2 | u | 3.7 | 7.7 | 2.4 | 0.1 | -36.1
[13] CC1(C)C(N(O)C(=O)Nc2ccc(Cl)cc2)N(c2ccc(Cl)cc2)C(=O)N1CC(=O)NN (stereo unspecified)
→ -9.6 | 8008 | -5.4 | 6.0 | -2.8 | -7.6 | -3.6
[14] CCc1cc(CNC(=O)C2CCC(=O)N(Cc3cccc(F)c3)C2)on1 (stereo unspecified)
→ 4.7 | 5075 | 4.6 | 5.4 | 2.3 | 8.7 | -82.3
[15] COc1ccccc1CNC(=O)c1csc(Cc2ccc(Cl)cc2)n1
→ -8.0 | 4582 | x | x | 1.7 | 12.2 | -9.0
[16] O=C(OCC(=O)N1CCCC1)c1cc(Cl)ccc1[N+](=O)[O-]
→ -6.2 | 3167 | 8.1 | -5.3 | 4.8 | 5.3 | -2.8
[17] Cc1ccc(C)c(S(=O)(=O)N2CCN(Cc3cc4c(cc3O)OCO4)CC2)c1
→ x | 9818 | 3.8 | 5.1 | 8.9 | 1.1 | -20.9
[18] Cc1ccc(C(c2nnnn2CC2CCCO2)N2CCN(Cc3ccccc3)CC2)cc1 (stereo unspecified)
→ 2.3 | 4644 | 3.7 | -0.5 | 5.1 | 6.4 | 67.0*
[19] CCCCC(CC)C(=O)Nc1ccccc1C#N (stereo unspecified)
→ -8.0 | 9186 | -3.4 | -15.3 | 2.2 | -2.3 | -35.8
[20] Cc1cc(NC(=O)/C=C/C(=O)N(CC(=O)NC2CCCC2)c2cccc3ccccc23)no1
→ 1.9 | 4516 | 6.5 | 4.6 | 2.8 | 4.6 | -17.0
[21] Cc1nc(N=CN(C)C)sc1C(=O)Nc1ccccc1
→ x | x | -4.8 | 6.2 | 1.7 | -1.2 | x
[22] CCOC(=O)CNC(=O)CCNS(=O)(=O)c1ccc2c(c1)c(=O)n(C)c(=O)n2C
→ 5.7 | 8389 | 7.1 | -0.6 | 2.0 | 5.3 | 4.0
[23] Cc1ccc(C(=O)c2ccc(N3CCOCC3)c(F)c2)cc1
→ -2.0 | 3348 | 4.1 | 6.1 | -9.9 | -11.2 | -19.3
[24] COc1cc(NN=Cc2ccc(N(C)C)cc2)ncn1
→ x | x | -1.2 | 5.5 | -0.1 | 4.3 | x
[25] CC(=O)c1cccc(NC(=O)N2CCc3ccccc3C2)c1
→ 9.5 | 10438 | 5.0 | 2.4 | 2.7 | 9.0 | -48.9
[26] Cc1cc(/C=N/NC(=O)c2ccc(CN3CCOCC3)cc2)c(C)n1-c1ccccc1
→ 2.6 | 10556 | x | x | x | x | -15.4
[27] Cc1ccccc1NC(=O)c1cc(S(=O)(=O)N2CCOCC2)cs1
→ -7.4 | 2866 | -9.6 | 0.9 | 6.3 | 4.1 | 1.1
[28] COc1ccc(OC)c(NC(=O)Nc2ccc(Cl)cc2)c1
→ -13.2 | 6037 | 9.9 | 2.2 | -7.4 | 1.8 | -36.0
[29] Cc1ccc(CSc2nnc(CNc3ccc(F)cc3)o2)cc1
→ 6.4 | 4453 | 4.4 | 2.6 | 7.8 | -0.7 | -1.9
[30] O=S(=O)(c1ccc(Cl)cc1)N1CCN(C(=S)Nc2ccc(F)c(Cl)c2)CC1
→ -10.4 | 1973 | -10.1 | 3.2 | -4.3 | -17.0 | -27.7
[31] Cc1ccc(CN(C(=O)N2CCN(C)CC2)S(=O)(=O)c2ccc(C)cc2)cc1
→ 0.2 | 6083 | 12.5 | -0.5 | 2.0 | 1.6 | -7.7
[32] CCCN(CCC)C1Cc2cc(OC)c(OC)cc2C1
→ -1.2 | 6037 | 1.9 | 1.2 | 2.2 | -3.4 | -20.4
[33] COc1ccc(CC(NC(C)=O)C(=O)NC2CCN(C(=O)Nc3ccc(C#N)cc3)CC2)cc1OC (stereo unspecified)
→ 0.5 | 10511 | -8.9 | -0.4 | -1.2 | -0.4 | -12.1
[34] O=S(=O)(c1ccc(Cl)s1)N1CCCCC1
→ -4.8 | 4623 | 8.7 | 14.2 | 3.5 | -6.0 | -13.6
[35] Cc1ccc2sc(-c3ccc(NC(=O)CCN4C(=O)c5ccccc5C4=O)cc3)nc2c1
→ -0.3 | x | 13.0 | 4.5 | 4.1 | 6.4 | x
[36] Cc1ccc(C2=NN(C)c3nc4ccccc4n3C2)cc1
→ -3.9 | 2518 | x | x | 9.1 | 8.0 | -23.9
[37] CC1(C)c2ccccc2N(CC(N)=O)C12C=Cc1ccccc1O2 (stereo unspecified)
→ 2.5 | 5263 | 2.7 | -1.0 | -3.4 | 5.2 | -22.4
[38] CCCCNc1cc(=O)n(C)c(=O)n1C
→ -0.5 | 3410 | 9.5 | 8.3 | 1.5 | -5.3 | -2.6
[39] NC1=Nc2cccc3cccc1c23
→ -9.2 | 4392 | -4.3 | -15.1 | 2.1 | 5.6 | -8.8

# Full records from above:
# Shown for CCOC(=O)CNC(=O)CCNS(=O)(=O)c1ccc2c(c1)c(=O)n(C)c(=O)n2C = BJeLR viability = 5.7; Autofluor counter = 8389; Mtb hypoxia inh = 7.1; Mtb hypoxia inh growth = -0.6; Sa RN4220 lethal = 2.0; ugtP null kill = 5.3; PrP UTR inh = 4.0
# Shown for CCCN(CCC)C1Cc2cc(OC)c(OC)cc2C1 = BJeLR viability = -1.2; Autofluor counter = 6037; Mtb hypoxia inh = 1.9; Mtb hypoxia inh growth = 1.2; Sa RN4220 lethal = 2.2; ugtP null kill = -3.4; PrP UTR inh = -20.4
# Shown for Cc1ccccc1NC(=O)c1cc(S(=O)(=O)N2CCOCC2)cs1 = BJeLR viability = -7.4; Autofluor counter = 2866; Mtb hypoxia inh = -9.6; Mtb hypoxia inh growth = 0.9; Sa RN4220 lethal = 6.3; ugtP null kill = 4.1; PrP UTR inh = 1.1

# Part of the list above, as tab-separated lines:
no.	molecule	BJeLR viability	Autofluor counter	Mtb hypoxia inh	Mtb hypoxia inh growth	Sa RN4220 lethal	ugtP null kill	PrP UTR inh
23	Cc1ccc(C(=O)c2ccc(N3CCOCC3)c(F)c2)cc1	-2.0	3348	4.1	6.1	-9.9	-11.2	-19.3
24	COc1cc(NN=Cc2ccc(N(C)C)cc2)ncn1	x	x	-1.2	5.5	-0.1	4.3	x
25	CC(=O)c1cccc(NC(=O)N2CCc3ccccc3C2)c1	9.5	10438	5.0	2.4	2.7	9.0	-48.9
26	Cc1cc(/C=N/NC(=O)c2ccc(CN3CCOCC3)cc2)c(C)n1-c1ccccc1	2.6	10556	x	x	x	x	-15.4
27	Cc1ccccc1NC(=O)c1cc(S(=O)(=O)N2CCOCC2)cs1	-7.4	2866	-9.6	0.9	6.3	4.1	1.1

# Screening results from PubChem BioAssay.
